# H5N1 antiviral: antiviral screen in MDCK cells, H5N1 avian flu. cytopathic effect, luminescence, 72 h; stronger effect = higher value; no value below 0 was filed and about half of the inactive calls have no number; reference of the scale not given here. actives 0.07% (n = 96,000). AID 740. inhibition, % at 50 µM; in the data active = inhibition above about 25%
# Active calls of the source: *; i = inactive. The list is partial; the hit share may differ from the screen's.
SMILES,H5N1 antiviral
CN(C)S(=O)(=O)c1ccc(Oc2ccc(S(=O)(=O)N(C)C)cc2)cc1,0.2
N#Cc1c(-c2ccccc2)ccn(Cc2ccccc2Cl)c1=O,1.6
Cc1cc(NC(=O)c2cc(-c3ccco3)on2)no1,i
Cc1ccn2c(C(=O)c3ccc(Cl)cc3)cnc2c1,i
CC1=Nc2cccc3cccc(c23)N1,i
COC(=O)c1ccc(=O)n(Cc2ccco2)c1,i
Cc1cc2n(n1)C(c1ccccc1Cl)Nc1ccccc1-2 (stereo unspecified),i
CCOc1ccc(C2CC(c3cccc(C)c3)n3ncnc3N2)cc1 (stereo unspecified),2.8
Nc1scc2c(C(=O)N/N=C/c3ccc(Cl)cc3)nn(-c3ccccc3)c(=O)c12,i
CS(=O)(=O)N(CC(=O)NC1CC2CCC1C2)c1cccc(C(F)(F)F)c1 (stereo unspecified),2.3
CCOCCCN(C(=O)CNC(=O)c1ccco1)C(C(=O)NC1CCCC1)c1ccccc1C (stereo unspecified),i
CCOc1ccc(NC(=O)CCC(=O)O)cc1,0.3
CC(OC(=O)CN1C(=O)C2CCCCC2C1=O)C(=O)Nc1ncc(Cl)cc1Cl (stereo unspecified),0.1
Nc1ccc(CCS(N)(=O)=O)cc1,0.6
O=C(NCCCN1CCCC1=O)c1ccc2c(=O)n(Cc3ccco3)c(=S)[nH]c2c1,0.5
CCCCN(C)S(=O)(=O)c1ccc(C(=O)Nc2nnc(-c3cccs3)o2)cc1,i
CCCc1[nH]nc2c1C(CCC)C(C#N)=C(N)O2 (stereo unspecified),0.2
CC1CCC2(CC1)NC(=O)c1ccccc1O2 (stereo unspecified),1.9
O=C(Nc1nccs1)c1ccc(-c2ccccc2Cl)o1,0.5
O=C(N1CCOCC1)N1c2ccccc2Sc2ccccc21,2.9
COc1ccc(N(CC(=O)N2CCN(c3ccccc3)CC2)S(=O)(=O)c2c(C)noc2C)cc1,1.5
Cc1ccccc1Cn1c(C(C)O)nc2ccccc21 (stereo unspecified),0.9
Cc1ccc(CC2CC(=O)N(c3ccc(Cl)cn3)C2=O)cc1 (stereo unspecified),0.1
O=C(Nc1ccccc1Cl)c1cc(S(=O)(=O)N2CCCCC2)ccc1N1CCOCC1,0.3
COc1cccc(C(=O)N2CCN(Cc3ccc4c(c3)OCO4)CC2)c1OC,i

# Quoted at random: 4 records from the list, in no set order.
SMILES,H5N1 antiviral
CCOCCCN(C(=O)CNC(=O)c1ccco1)C(C(=O)NC1CCCC1)c1ccccc1C (stereo unspecified),i
Nc1ccc(CCS(N)(=O)=O)cc1,0.6
COc1cccc(C(=O)N2CCN(Cc3ccc4c(c3)OCO4)CC2)c1OC,i
CCCCN(C)S(=O)(=O)c1ccc(C(=O)Nc2nnc(-c3cccs3)o2)cc1,i

# Next part.
SMILES,H5N1 antiviral
COC(=O)CCC(=O)COc1ccc(OC)cc1C#N,0.1
CC(C)CCNC(=O)Cn1c(=O)oc2cc(S(=O)(=O)N3CC(C)CC(C)C3)ccc21 (stereo unspecified),0.6
COc1ccccc1NC(=O)CN1CCN(CC(=O)Nc2ccc(F)cc2)CC1,i
CN(C)CCCNC(=O)c1ccc2[nH]c3ccccc3c2c1,0.3
CC(=O)n1cc(Nc2ccccc2C(=O)O)c2ccccc21,i
O=C(N/N=C/c1cccs1)c1ccccn1,0.2
CC(C)(C)NC(=O)CSc1nc(O)cc(=O)n1-c1ccccc1F,i
O=C(NC1CCCCC1)N(Cc1nc2ccccc2c(=O)[nH]1)C1CCCC1,i
Cc1ccc(CNC(=O)CN(C)S(=O)(=O)c2cccc3nsnc23)cc1,i
O=C(CC12CC3CC(CC(C3)C1)C2)N1CCCC1,0.2
COC(=O)c1cnc2c(C(F)(F)F)cccc2c1OC,i
Cc1ccc(O)c(C(=O)c2coc(=N)c(C(=O)NC(C)C)c2)c1,0.4
CC(C)C(=O)Nc1nnc(Cc2ccccc2)s1,i
CCOC(=O)C1CCN(CC(=O)c2c(C)[nH]c3cc(C)ccc23)CC1,i
CCn1cc(SCC(=O)NCc2ccc3c(c2)OCO3)c2ccccc21,0.8
CCOc1ccc(C(=O)N2CCCN(C(=O)c3ccc(OCC)cc3)CC2)cc1,0.0
Cc1cc(NS(=O)(=O)c2ccc(NC(=O)c3cc4ccccc4o3)cc2)nc(C)n1,i
Cc1ccc(NC(=O)c2cccc3c2-c2ccccc2C3=O)cc1C,0.9
C=CCOc1c2ccc(C(=O)NCc3ccccc3OC)cc2nn1C,i
CCOc1ccc(NC(=O)c2ccncc2)cc1,i
Cc1nc2cc(-c3sccc3-n3cccc3)nn2c(C)c1C,0.8
COc1cc(OC)cc(C(=O)N[C@H](C(=O)OCC(=O)c2ccc3c(c2)NC(=O)CO3)C(C)C)c1,i
CCOC(=O)N1CCC(Nc2ncnc3c2cnn3-c2ccccc2)CC1,i
O=C1Nc2ccccc2C(O)(C(=O)NC2CC2)N1c1ccc(Cl)c(Cl)c1 (stereo unspecified),i
O=C(NNC(=O)C1CC1c1ccccc1)Nc1cccc(Cl)c1 (stereo unspecified),0.3

# 14 structures from above, arranged by molar mass, low to high.
SMILES,H5N1 antiviral
O=C(N/N=C/c1cccs1)c1ccccn1,0.2
COC(=O)CCC(=O)COc1ccc(OC)cc1C#N,0.1
COC(=O)c1cnc2c(C(F)(F)F)cccc2c1OC,i
CN(C)CCCNC(=O)c1ccc2[nH]c3ccccc3c2c1,0.3
Cc1nc2cc(-c3sccc3-n3cccc3)nn2c(C)c1C,0.8
Cc1ccc(O)c(C(=O)c2coc(=N)c(C(=O)NC(C)C)c2)c1,0.4
Cc1ccc(NC(=O)c2cccc3c2-c2ccccc2C3=O)cc1C,0.9
O=C(NNC(=O)C1CC1c1ccccc1)Nc1cccc(Cl)c1 (stereo unspecified),0.3
CCOC(=O)C1CCN(CC(=O)c2c(C)[nH]c3cc(C)ccc23)CC1,i
CC(C)(C)NC(=O)CSc1nc(O)cc(=O)n1-c1ccccc1F,i
CCn1cc(SCC(=O)NCc2ccc3c(c2)OCO3)c2ccccc21,0.8
Cc1ccc(CNC(=O)CN(C)S(=O)(=O)c2cccc3nsnc23)cc1,i
CCOc1ccc(C(=O)N2CCCN(C(=O)c3ccc(OCC)cc3)CC2)cc1,0.0
COc1ccccc1NC(=O)CN1CCN(CC(=O)Nc2ccc(F)cc2)CC1,i

# New compounds follow.
SMILES,H5N1 antiviral
N#CC(C(=O)NC1CCCCC1)c1nc2ccccc2nc1N1CCN(c2ccccc2F)CC1 (stereo unspecified),0.8
Cc1cc(Cl)c(S(=O)(=O)Nc2ccc3c(c2)OCO3)cc1OCC(=O)NC1CCCCC1,i
C=CCCC(=O)Nc1nc(C)c(-c2csc(Nc3cccc(OC)c3)n2)s1,1.3
CCOC(=O)c1ccc(CNC(=O)CCC(=O)O)cc1,i
CCc1nnc(NC(=O)c2nc3nccc(C)n3n2)s1,i
Cc1ccc2cc(CN(CCN3CCCC3)C(=O)Nc3ccccc3)c(=O)[nH]c2c1C,i
Cc1ccc(-n2nc(C(=O)O)cc2-c2ccccc2)cc1,0.1
O=S(=O)(c1ccc(Cl)c(Cl)c1)N1CCc2nc3ccccc3n2CC1,1.2
O=C(COC(=O)C1CC1)NCc1ccccc1Cl,i
CCOc1c2ccc(C(=O)NCCCCc3ccccc3)cc2nn1C,i
O=C(CSc1nc(-c2ccco2)cc(C(F)(F)F)n1)Nc1cccnc1,i
O=C(CCNc1ccccc1)c1ccc2c(c1)OCO2,i
Cc1nc2ncccn2c1-c1csc(NCc2ccco2)n1,5.4
CCCC(=O)Nc1ccc(NC(=O)c2ccccn2)cn1,i
CCS(=O)(=O)c1ccc2oc(SCC(=O)NC34CC5CC(CC(C5)C3)C4)nc2c1,5.6
COc1ccc(OC)c2c1sc(=NC(=O)c1ccco1)n2C,i
O=C1c2ccccc2C(=O)N1CCCc1nc(-c2ccccc2)no1,i
O=C1NCCN1Cc1ccc(F)cc1,0.8
Fc1ccc(-c2cn3cc(C(F)(F)F)cc(Cl)c3n2)cc1,i
Cc1ccc(S(=O)(=O)NC(CC(=O)N2CCc3ccccc32)c2ccco2)cc1 (stereo unspecified),i
COc1ccc2c(c1)NC(=O)CC(c1ccccc1)=N2,0.6
O=C(CSc1ccc2nnc(-c3ccncc3)n2n1)Nc1ccc2c(c1)OCO2,3.3
Cc1cc(C)c2c(c1)-c1cc(C)nn1C(c1ccc3c(c1)OCO3)N2 (stereo unspecified),i
Cc1ccc(Nc2cc(C)nc3ncnn23)c(Cl)c1,2.2
CCOC(=O)C1CCCN(c2c(N3CCC(N4CCCCC4)CC3)c(=O)c2=O)C1 (stereo unspecified),2.2

# Next entries follow:
SMILES,H5N1 antiviral
COc1ccc(-n2c(SCC(=O)NCCC(C)C)nc3ccsc3c2=O)cc1,i
Cc1ccc(-c2ccc(SCC(=O)Nc3nonc3C)nn2)cc1,i
C/C=C/C(=O)OCC(=O)Nc1ccc(F)cc1Cl,0.1
CCS(=O)(=O)N1CCC(C(=O)NCc2ccccn2)CC1,i
Cc1oc(-c2ccccc2)[n+]([O-])c1C,i
O=C(N/N=C/c1ccc(Br)o1)/C(=C/c1ccc([N+](=O)[O-])cc1)NC(=O)c1ccccc1,i
CCC(=O)N1CCN(c2ccccc2NC(=O)Cc2ccc(Cl)cc2)CC1,i
CN(C)C(CNC(=O)c1cccc(S(=O)(=O)N(C)C)c1)c1ccccc1 (stereo unspecified),i
O=C(CN1CCCCCC1)Nc1cccc(Br)c1,1.4
CN1C(=O)C(Cc2nc3ccccc3c(=O)n2-c2ccccc2)c2ccccc21 (stereo unspecified),0.4
COc1ccccc1N1CC(C(=O)OC(C)C(=O)N2CCCc3ccccc32)CC1=O (stereo unspecified),1.1
CCS(=O)(=O)NCCc1ccc(OC)c(OC)c1,0.4
O=C(NCc1ccc2c(c1)OCO2)c1ccc(S(=O)(=O)NCC2CCCO2)cc1 (stereo unspecified),0.0
Cc1ccccc1-n1c(=O)c2ccccc2n2nnnc12,i
CCCCOC(=O)Nc1ccc(OC)cc1S(=O)(=O)N1CCOCC1,i
CCOC(=O)C1CCN(C(=O)CCN2C(=O)C3C4C=CC(C4)C3C2=O)CC1 (stereo unspecified),i
Cc1nnc(N2CCN(Cc3ccccc3)CC2)[nH]c1=O,i
Cc1cccc(NC(=O)c2ccc(COc3ccc(Cl)cc3Cl)o2)n1,i
Cc1ccc(NC(=O)N2CCC(NC(=O)c3ccccc3C)CC2)cc1,i
CN1C(=O)CC2(CC(=O)N(Cc3ccccc3)C2)C1=O (stereo unspecified),i
Cc1onc(-c2ccccc2)c1C(=O)Nc1c(C)n(C)n(-c2ccccc2)c1=O,0.4
c1cc2c(cc1Oc1nc(N3CCOCC3)nc(N3CCOCC3)n1)OCO2,0.1
CN(C)C(=O)c1cc(Br)ccc1Cl,0.1
C=CCn1c(O)c(C=Nc2ccc(Cc3ccncc3)cc2)c(=O)[nH]c1=S,i
CCn1c(SCC(N)=O)nnc1-c1cc2c(C)nn(-c3ccccc3)c2s1,2.7

# Other results.
SMILES,H5N1 antiviral
CCCC(=O)n1nc(-c2ccc(OC)cc2)nc1N,0.0
CCCOc1ccc(/C=c2\sc3nc(-c4ccco4)nn3c2=O)cc1OCC,i
CCCNC(=O)Cn1cnc2sc(C(=O)N3CCN(c4ccc(F)cc4)CC3)c(C)c2c1=O,i
CCC1CCCCN1C(=O)CN1C(=O)CSC1=O (stereo unspecified),1.1
CN1CCN(CC(=O)C23CC4CC(CC(C4)C2)C3)CC1,i
Cc1cc(C)nc(SCNC(=O)c2ccc(F)cc2)n1,i
COc1nc(-c2ccncc2)nc2ccccc12,0.3
CCOc1cc(/C=C2\N=C(SCC)SC2=O)cc([N+](=O)[O-])c1OC(C)=O,i
COc1ccc2cc(C#N)c(SCC(=O)NNC(=O)Cc3ccccc3)nc2c1,0.7
CCC(C)NC(=O)CCS(=O)(=O)c1ccc(Br)s1 (stereo unspecified),0.1
COC(=O)CNC(=O)c1c(-c2ccccc2Cl)noc1C,0.1
O=C(c1cn(CC(=O)N2CCCCC2)c2ccccc12)C1CC1,1.6
Cc1ccc(N(C(C)C(=O)N2CCCCC2)S(C)(=O)=O)cc1C (stereo unspecified),i
COc1cc(CC(=O)OCC(=O)c2ccc3c(c2)OCCO3)cc(OC)c1OC,i
CCc1cc(/C(Cc2ccc3ccccc3n2)=N\O)c(O)cc1O,5.5
CCn1c(C)c(C(C)=O)c(N2CCN(c3ccccn3)CC2)nc1=S,i
CCN(CC)C(=O)CSc1nc2ncc(Cl)cc2[nH]1,0.2
O=C(COC(=O)c1cccc(C(=O)OCC(=O)NC2CCCCC2)n1)NC1CCCCC1,1.4
CCCc1nc2ccccc2c(C(=O)OCC(=O)Nc2cccc(S(=O)(=O)N3CCOCC3)c2)c1CC,i
CC(=O)c1cccc(NC=C2C(=O)OC3(CCCCC3)OC2=O)c1,2.4
Cc1sc2ncn3cnnc3c2c1C,i
COC(=O)C1=C(N)Oc2cc(C)n(Cc3cccnc3)c(=O)c2C1c1ccc(OC)c(OC)c1 (stereo unspecified),i
Clc1ccc(-c2nnc3sc(-c4ccccn4)nn23)cc1,i
Cc1ccc(C(=O)N/C(=C\c2cccs2)C(=O)NC2CCCCC2)cc1,i
CCN1C(=O)/C(=C/c2cccs2)SC1=Nc1ccc(OC)cc1,i

# (more compounds)
SMILES,H5N1 antiviral
CCc1nc(SCC(=O)Nc2cccc(C(F)(F)F)c2)c2c(=O)n(C)c(=O)n(C)c2n1,i
COc1ccc(N/C=C(\C#N)c2ccc(OCCCF)cc2)cc1,i
COc1ccc(C2CC(c3ccc(Cl)c(Cl)c3)Nc3nc(N)nn32)cc1 (stereo unspecified),i
CC(C)CCN(C(=O)Nc1ccccc1)C(C)c1cccs1 (stereo unspecified),i
O=C(CCCc1c[nH]c2ccccc12)N1CCCCCC1,i
COc1ccc(CSc2nnnn2Cc2ccccc2)cc1OC,i
CS(=O)(=O)N1CCN(c2ccccc2NC(=O)Cc2ccc(Cl)cc2)CC1,1.4
O=C(CSc1nc(O)cc(=O)n1-c1ccccc1)NCc1ccccc1,0.7
Cn1c(SCC2CCCCC2)nnc1-c1ccncc1,0.8
O=C(Oc1cccnc1)c1cc2ccccc2oc1=O,i
Nc1cc2nsnc2cc1Br,0.5
CC(C)c1nc2ccccn2c1NC1CCCCC1,0.3
CCN=C1NN=C(c2ccc(C)cc2)CS1,i
CCCN1C2=NS(=O)(=O)CCN2c2ccccc21,i
COc1ccc2nc(SCC(=O)Nc3ccc4sc(C)nc4c3)c(C#N)cc2c1,i
CCC(C)N=Cc1c(O)n(-c2ccccc2)c(=O)[nH]c1=O (stereo unspecified),0.1
COc1ccccc1C(=O)Nc1ccccn1,0.5
